# Screens as filed in PubChem BioAssay.
# Mtb MbtI inh – blocks the Mycobacterium tuberculosis siderophore enzyme MbtI; purified MbtI enzyme, fluorescence intensity read-out; AID 493033; inhibition, %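 (about 17 µg/mL by stock and volumes)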; P9WFX0; hit rate 0.89% among 100,000;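 active = above 50% in both replicates, above 80% if mildly self-fluorescent; inactive = the rest, strongly fluorescent compounds included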;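 also: 0% = mean of negative and 100% = mean of positive controls; one replicate is shown; some compounds called inactive have numbers as strong as hits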
# PV pol inh – inhibitors of poliovirus RNA polymerase binding and polymerization; P03300; AID 588519; poliovirus polymerase elongation, fluorescence polarization; stronger effect = lower value; hit rate 0.66% among 150,000; % elongation, % (compound at 16.7 µg/mL); in the data active = % elongation below about 90%; also: some results filed as inactive read as strong as hits
# Target sequence (P03300 1749-2209 limits assumed): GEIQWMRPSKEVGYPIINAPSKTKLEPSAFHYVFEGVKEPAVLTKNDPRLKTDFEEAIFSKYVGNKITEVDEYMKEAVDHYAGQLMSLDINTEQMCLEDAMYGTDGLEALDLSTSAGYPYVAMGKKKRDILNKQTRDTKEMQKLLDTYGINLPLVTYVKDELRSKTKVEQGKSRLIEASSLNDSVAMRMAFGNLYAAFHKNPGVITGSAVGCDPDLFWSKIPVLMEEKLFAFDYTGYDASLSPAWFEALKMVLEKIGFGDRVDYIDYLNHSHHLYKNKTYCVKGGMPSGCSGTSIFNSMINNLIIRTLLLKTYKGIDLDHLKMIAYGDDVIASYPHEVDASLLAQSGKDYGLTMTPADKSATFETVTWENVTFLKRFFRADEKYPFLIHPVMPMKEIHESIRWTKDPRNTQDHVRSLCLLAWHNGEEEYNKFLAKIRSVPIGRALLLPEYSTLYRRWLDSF
# MenB inh – inhibitors of Mycobacterium tuberculosis MenB enzyme; MenB enzyme assay, absorbance read-out; some hits fall short of the stated cut; P9WNP5; inhibition, %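 (about 12 µg/mL by stock and volumes)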; hit rate 0.43% among 100,000;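 active = mean of two replicates above 30%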;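 also: 0% = no compound and 100% = wells with inactive enzyme; the first replicate is given; strong numbers were not always called active; inactives centre near -10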
# Target sequence (P9WNP5 whole entry, looked up): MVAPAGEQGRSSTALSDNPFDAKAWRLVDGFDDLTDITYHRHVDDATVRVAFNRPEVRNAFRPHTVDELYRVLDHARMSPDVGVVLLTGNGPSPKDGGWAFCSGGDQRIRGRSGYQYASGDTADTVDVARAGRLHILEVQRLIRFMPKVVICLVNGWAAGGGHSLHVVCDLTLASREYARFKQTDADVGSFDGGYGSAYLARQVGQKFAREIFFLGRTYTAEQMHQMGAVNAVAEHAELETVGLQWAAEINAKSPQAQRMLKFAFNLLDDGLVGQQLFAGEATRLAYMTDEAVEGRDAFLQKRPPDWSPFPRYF
# PV pol inh intensity – further read-out of PV pol inh, marked with its call; % elongation; measured here: total intensity read-out; formula for this scale not given here;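 total fluorescence in place of polarization; lower means less elongation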
# An asterisk follows results filed as active; i = inactive; . = no result given; & = joins results of further samples.
SMILES,Mtb MbtI inh,PV pol inh,PV pol inh intensity,MenB inh
Cc1ccc2oc(-c3ccc4c(c3)C(=O)N(C)C4=O)nc2c1,-82,104,101,-27
CCCN1CCN(C(=S)Nc2ccc(S(N)(=O)=O)cc2)CC1,-6,101,104,-6
CCOC(=O)c1cc(C)n(-c2ccc(I)cc2)c1C,-5,101,94,-6
CCN(CC)S(=O)(=O)c1cccc(C(=O)OCc2nnc(-c3ccccc3)o2)c1,-11,106,110,5
CNS(=O)(=O)c1cc(C)ccc1OC,0,101,100,-23
COc1cccc(CNc2ccc(-c3nc4ncccc4o3)cc2)c1OC,90,101,99,-18
Cc1ccc2occ(CC(=O)Nc3nnc(C)s3)c2c1,3,101,103,-7
CC1=CC(C)(C)NC(=O)N1c1cccc(F)c1,-6,105,97,-2
CCCCOc1cc(C(=O)NCCN(CC)CC)c2ccccc2n1,i,103&100,101&102,-5&11
COC(=O)c1ccccc1NC(=O)Nc1ccc(C(=O)N2CCCC2)cc1,73,100,101,12
CCOC(=O)c1sc(NCc2ccco2)c(-c2nc3ccccc3s2)c1N,11,121,141,-25
CC(C)CNCCCN1CCOCC1,0,101,116,36*
NNC(=O)c1ccc(Oc2ccc(Cl)cc2)nc1,3,102,106,-14
CCOC(=O)c1oc2ccccc2c1COC(=O)/C=C/c1cccs1,-10,105,107,-28
COc1ccc(CCN2CC(C(=O)N(C)C)CC2=O)cc1OC (configuration not stated),-8,101,108,-25
CCCCC/C=C\C/C=C\CC1OC1C/C=C\CCCC(=O)O (configuration not stated),-5,101&99,99&99,-6
CC1(C)CC(=O)C=C(Nc2sc3c(c2C(N)=O)CCCC3)C1,.,105,107,-9
Cc1nnc(C(=O)c2ccccc2)o1,.,104,102,-7
CCOc1ccc2sc(NC(=O)NC(C)N3C(=O)C4C5C=CC(C5)C4C3=O)nc2c1 (configuration not stated),8,103,101,10
NN1C(=O)/C(=C\c2ccccc2)SC1=S,3,102,107,-1
CC[n+]1oc(C)c2ccccc21,2,102,106,-45
COC(=O)CC1CC(C)(C)NC(C)(C)C1,.,106,109,2
CC(C)C(=O)Nc1nnc(-c2ccccc2)o1,-17,98,105,-23
CCCC1=NN(c2ccccc2)C(=O)/C1=C/c1ccc2c(c1)OCO2,-9,102,109,-6
Cc1noc(C)c1C(=O)Nc1ccc(S(=O)(=O)N2CCCCC2)cc1,-7,102,106,1

# The final 5 compounds of the part above open the next one.
SMILES,Mtb MbtI inh,PV pol inh,PV pol inh intensity,MenB inh
CC[n+]1oc(C)c2ccccc21,2,102,106,-45
COC(=O)CC1CC(C)(C)NC(C)(C)C1,.,106,109,2
CC(C)C(=O)Nc1nnc(-c2ccccc2)o1,-17,98,105,-23
CCCC1=NN(c2ccccc2)C(=O)/C1=C/c1ccc2c(c1)OCO2,-9,102,109,-6
Cc1noc(C)c1C(=O)Nc1ccc(S(=O)(=O)N2CCCCC2)cc1,-7,102,106,1
O=C(O)/C=C/C(=O)N1CCCCC1,-9,101,105,-21
N#C/C(=C\c1cn(CCOc2ccccc2F)c2ccccc12)C(=O)NC1CC1,-21,101,102,13
COc1ccc(Cl)cc1NC(=S)N1CCCCC1CO (configuration not stated),9,103,106,-28
CC[C@H]1CN2CCC3(C(=O)Nc4ccccc43)C2C[C@@H]1/C(=C\OC)C(=O)OC (some centres not stated),.,106,121,-20
O=C(O)C1(c2ccccc2)CCN(S(=O)(=O)c2ccccc2)CC1,-25,95,97,0
O=C[C@@H]1CCCN1C(=O)[C@@H]1CCCN1C(=O)OCc1ccccc1,52,104&103,105&103,-9
Cc1ccc(CN2CCc3nc(SCC(=O)NCCc4ccccc4)[nH]c(=O)c3C2)cc1,45,102,103,2
COc1cccc(NC(=O)C(C#N)Cc2cccs2)c1 (configuration not stated),-2,102,103,-2
CC(=O)N(C)c1ccc(C(O)(C(F)(F)F)C(F)(F)F)cc1,3,102,104,-15
COC(=O)C1=CN(Cc2ccc(OC)cc2)C=C(C(=O)OC)C1c1ccc(OC)cc1,58,102,105,-24
Oc1ccccc1OCc1ccc2ccccc2n1,-10,102,111,6
CN(CC(=O)Nc1ccc(Cl)cc1)C1CCCCC1,-2,102,102,20
COc1ccc(N(CC(=O)N2CCN(c3ccccc3F)CC2)S(=O)(=O)c2c(C)nn(C)c2C)cc1,2,101,101,6
CCOC(=O)CCN1C(=O)c2ccccc2Sc2ncccc21,-27,102,104,-18
O=C(C1CCCN1S(=O)(=O)c1ccc2nc(-c3ccccc3)[nH]c2c1)N1CCOCC1 (configuration not stated),-2,101,97,-6
O=c1[nH]ncc2c3ccccc3n(Cc3ccc(F)cc3)c12,-2,101,103,-33
COC(=O)c1cc(OC)c(OC)cc1NC(=S)N1CCN(c2ccccn2)CC1,-13,100,100,-29
CC1(C)NC(=O)N(CC(O)Cn2c3ccccc3c3ccccc32)C1=O (configuration not stated),93,100,107,-6
CCSCC(=O)Nc1ccc(F)cc1,1,104,104,-35
CO[C@H]1CC(O[C@@H]2/C(C)=C/C[C@@H]3C[C@@H](C[C@]4(CC[C@H](C)[C@@H](C5CCCCC5)O4)O3)OC(=O)[C@@H]3C=C(C)/C(=N/O)[C@H]4OC/C(=C\C=C\[C@@H]2C)[C@]43O)O[C@@H](C)C1O (some centres not stated),-9,101,104,16
Cc1ccccc1Cn1c(=O)n(CCC(C)C)c(=O)c2cccnc21,-16,99,103,-7
COC(=O)c1sccc1-c1ccc(CN2CCCc3cc(OC)ccc32)o1,3,108,103,-18
O=C(CSc1ncnc2sccc12)NC(=O)CN1CCCC1=O,-2,103,108,-8
CCCCCc1c(C)c(C#N)c2nc3ccccc3n2c1-n1ccnc1,-3,100,104,-5
O=C1Nc2ccccc2S/C1=C\C(=O)N1CCN(c2ccccc2)CC1,-10,104,106,-12

# The list continues.
SMILES,Mtb MbtI inh,PV pol inh,PV pol inh intensity,MenB inh
N#Cc1c(SCC(=O)N2CCCCC2)nsc1SCC(=O)N1CCCCC1,.,100,108,-25
O=C(Nc1ccc(N2CCOCC2)cc1)c1ncn[nH]1,9,100,101,-13
COCC(C)NC(=O)c1ccccc1OC(C)=O (configuration not stated),i,99,100,-26
CC(C)=CC(=O)Oc1ccc(Br)cc1,-13,102,101,-32
CC1CCCC(C)N1C(=O)c1cc(-c2ccc(Cl)cc2)on1 (configuration not stated),-3,104,104,-22
COc1ccc2[nH]c3c(=O)[nH]cnc3c2c1,.,99,103,-14
Cc1cc2nc3c(=O)[nH]c(=O)nc-3n(CC(O)C(O)C(O)CO)c2cc1C (configuration not stated),-15&-14,72&65,186&190,-12&0
CCCN1C2CCCC1CC(NC(=O)c1ccccc1C)C2 (configuration not stated),-3,103,103,-18
O=C(CC(c1ccccc1)c1ccccc1)NCCN1CCOCC1,.,107,106,-15
Cc1cc(C(F)(F)F)nc(SCCNC(=O)Cc2ccc(F)cc2)n1,1,102,100,8
Cc1cc(C)n2ncc(C(=O)Nc3cccc(C(F)(F)F)c3)c2n1,1,99,101,-7
COc1cc2c(c(OC)c1OC)-c1ccc(O)c(=O)cc1[C@@H](NC(=O)C(F)(F)F)CC2,.,116,122,-3
Cn1c(N)c(Br)c(-c2ccc(F)cc2)c(C#N)c1=O,-2,99,101,3
CC1(C)CC2=NN(c3ccccc3)P(=O)(OCC3CCCO3)C2=C(N2CCCCC2)C1 (configuration not stated),12,101,104,-13
CS(=O)(=O)c1ccccc1C(=O)Nc1cc2c(cc1C(=O)O)OCCO2,15,100,106,1
Cc1ccc(C(=O)OCC(=O)N2CCCC2)cc1NC(=O)c1ccco1,-7,103,107,3
CC/C(C)=N/N1C(=O)c2ccccc2NC1(C)CC (configuration not stated),-296,99,100,-6
COc1ccc(S(=O)(=O)NC2(C(=O)O)CCCCC2)cc1,-8,101,101,-5
CCOc1ccccc1C(=O)Nc1cccc(C)c1,2,102,98,3
COc1ccc(Nc2cnnc3c(Cl)cccc23)cc1OC,15,101,101,-110
CN[C@@H]1[C@H](O[C@H]2[C@H](O[C@@H]3[C@@H](O)[C@H](O)[C@@H](N=C(N)N)[C@H](O)[C@H]3N=C(N)N)O[C@@H](C)[C@]2(O)C=O)O[C@@H](CO)[C@H](O)[C@H]1O,-3,100,97,5
COc1ccc2c(c1)C(=O)N(CCc1ccc(S(=O)(=O)NC(=O)NC3CCCCC3)cc1)C(=O)C2(C)C,i,100,101,-17
Cc1csc(NC(=O)c2cc[n+]([O-])cc2)n1,-1,101,101,.
NC(=O)N1c2ccccc2C=Cc2ccccc21,-2&-23,102&99,100&102,-3&7
CC(Sc1nnc(N)s1)C(=O)Nc1ccc(F)c(F)c1F (configuration not stated),16,100,111,11

# Of the compounds above, these have bromine.
SMILES,Mtb MbtI inh,PV pol inh,PV pol inh intensity,MenB inh
CC(C)=CC(=O)Oc1ccc(Br)cc1,-13,102,101,-32
Cn1c(N)c(Br)c(-c2ccc(F)cc2)c(C#N)c1=O,-2,99,101,3

# The results go on:
SMILES,Mtb MbtI inh,PV pol inh,PV pol inh intensity,MenB inh
O=C(Nc1nccs1)c1cccc(S(=O)(=O)N2CCCCC2)c1,-3,102,106,-5
O=C(c1sc2ccccc2c1Cl)n1ccc(-c2cccs2)n1,-7,100,104,2
CN(C(=O)c1ccccc1)c1nc2ccccc2s1,.,108,99,-28
O=C1CN(C(=O)C2CCC2)CCN1,-15,104,108,-4
Cc1ccc2nc(C)cc(Nc3ccccc3)c2c1,25,.,.,6
Cc1nc2ccccc2c(C)c1CC(=O)O,8,98,96,.
CC1=Nc2ccccc2/C1=C/c1sc(=O)n(-c2ccccc2)c1O,-3,102,102,-46
CCCCCCOc1ccc(C2C(C#N)=C(C)NC(C)=C2C#N)cc1,101,105,111,-40
O=C(COc1ccccc1Cl)N1CCOCC1,.,107,109,-19
COc1ccc(CNC(=O)c2ccc(CS(=O)c3ccc(OC)cc3)o2)cc1 (configuration not stated),-6,105,103,-3
COc1ccccc1NC(=O)CN(Cc1ccco1)C(=O)Cc1ccc(Cl)cc1,7,.,.,1
CCC(=O)N(c1nnc(SC(C)c2nc3ccccc3c(=O)[nH]2)s1)C1CC1 (configuration not stated),-2,108,101,-27
COc1ccc(C2=NC(c3ccncc3)=Nc3ccc(C(C)C)cc3N2)cc1OC,-5,102,103,-25
COc1ccccc1-c1coc2c(CN(C)C)c(O)ccc2c1=O,-272,102,103,-11
N#Cc1cnn(C(N)=S)c1N,18,98,106,.
COc1ccc(C2=NN3COc4ccccc4C3C2)cc1 (configuration not stated),-33,104,109,4
Cc1ccc2nc(SCCC3OCCO3)nc(=O)n2c1,10,100,110,-17
NC(=O)C1CCN(C(=O)C2C3CCC(C3)C2C(=O)O)CC1 (configuration not stated),-8,103,108,-79
C/C(=C\c1ccccc1)c1ccc2c(c1)CCN2C,3,105,107,-19
CSc1ccc(/C=N/N(C)S(=O)(=O)c2ccc(C)cc2)cc1,3,99,100,-19
CC(C)C(=O)Nc1c2c(nn1-c1ccc(Oc3ccccc3)cc1)CSC2,-11,104,106,-25
Cc1[nH]c2ccc(F)cc2c1CC(=O)O,54,100,101,0
CNC(=O)c1c(O)c2ccccc2n(C)c1=O,.,108,104,3
C/C(CCc1ccc2c(c1)OCO2)=N\N=C(/N)SC1CC(=O)N(c2ccccc2)C1=O (configuration not stated),-14,99,104,0
CCCNC(=O)c1noc2c1CCc1cc(OC)ccc1-2,1,102,104,-32

# Later entries
SMILES,Mtb MbtI inh,PV pol inh,PV pol inh intensity,MenB inh
CC(Sc1nnc(-c2cccs2)n1-c1ccccc1)C(=O)NC1(C#N)CCCCC1 (configuration not stated),-80,106,107,6
O=C(NCc1ccc2c(c1)OCO2)c1ccc(S(=O)(=O)N2CCCC2)cc1,3,101,101,-24
O=C(C1CCC1)N1CCc2cc(S(=O)(=O)NCCCN3CCN(Cc4ccccc4)CC3)ccc21,-3,100,103,-25
CC(C)CNS(=O)(=O)c1ccccc1,-8,102,102,5
Cc1ccccc1C(=O)Nc1scc(CC(C)C)c1C(=O)O,-2,102,105,.
C=CCn1c(=O)c(C(=O)Nc2cccc(O)c2)c(O)c2ccccc21,16,102,102,-24
Cc1[nH]c2ccccc2c1C(=O)COc1ncnc2ccccc12,-1,101,100,.
C/C(=N\OCc1nc2c3c4c(sc3ncn2n1)CCCC4)c1cccs1,-5,101,103,8
O=c1[nH]nc(SCc2cccc3nsnc23)n1-c1ccccc1,6,102,102,0
N#Cc1cccnc1NNC(=O)c1ccccc1C(=O)O,24,99,101,15
COc1ccc(CCNC2CC(=O)N(C)C2=O)cc1OC (configuration not stated),-3,.,.,-21
O=C(Cn1nnc(-c2ccccc2)n1)OCc1ccccc1,-12,105,108,-16
COc1ccc2c(c1)C(SCC(=O)NC1CC1)CC(C)(C)O2 (configuration not stated),0,105,104,-34
COc1cc(C(CC(=O)O)CC(=O)N2CCC(n3cccc3)CC2)cc(OC)c1OC (configuration not stated),0,101,96,0
CC(OC(=O)C1=NNC(=O)CC1)C(=O)Nc1nc(-c2ccccc2)cs1 (configuration not stated),6,104,104,-13
CC1=CCC2C(=O)N(c3ccc(C(=O)N4CCCCCC4)cc3)C(=O)C2C1 (configuration not stated),1,104,103,-6

# Entries of single compounds, quoted from the list:
# `CC(Sc1nnc(-c2cccs2)n1-c1ccccc1)C(=O)NC1(C#N)CCCCC1` (configuration not stated) in the list: Mtb MbtI inh: -80; PV pol inh: 106; PV pol inh intensity: 107; MenB inh: 6
# `CC1=CCC2C(=O)N(c3ccc(C(=O)N4CCCCCC4)cc3)C(=O)C2C1` (configuration not stated) in the list: Mtb MbtI inh: 1; PV pol inh: 104; PV pol inh intensity: 103; MenB inh: -6
